Screens as filed in PubChem BioAssay.
KCNQ2 block: KCNQ2 potassium channel inhibitors, primary screen, cell-based, CHO-K1, FluxOR thallium flux, B-score (AID 2156); actives 1.1% (n = 310,000); B-score at 10 µM; 20 min; active compounds read low; only compounds with negative scores are shown here; some inactives read as strong as hits;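 active means fluorescence ratio B-score at most minus 3 library SDs, with starting brightness B-score within 2 library SDs, cut at about -5.5 in these data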
Target sequence (O88943 whole entry, looked up): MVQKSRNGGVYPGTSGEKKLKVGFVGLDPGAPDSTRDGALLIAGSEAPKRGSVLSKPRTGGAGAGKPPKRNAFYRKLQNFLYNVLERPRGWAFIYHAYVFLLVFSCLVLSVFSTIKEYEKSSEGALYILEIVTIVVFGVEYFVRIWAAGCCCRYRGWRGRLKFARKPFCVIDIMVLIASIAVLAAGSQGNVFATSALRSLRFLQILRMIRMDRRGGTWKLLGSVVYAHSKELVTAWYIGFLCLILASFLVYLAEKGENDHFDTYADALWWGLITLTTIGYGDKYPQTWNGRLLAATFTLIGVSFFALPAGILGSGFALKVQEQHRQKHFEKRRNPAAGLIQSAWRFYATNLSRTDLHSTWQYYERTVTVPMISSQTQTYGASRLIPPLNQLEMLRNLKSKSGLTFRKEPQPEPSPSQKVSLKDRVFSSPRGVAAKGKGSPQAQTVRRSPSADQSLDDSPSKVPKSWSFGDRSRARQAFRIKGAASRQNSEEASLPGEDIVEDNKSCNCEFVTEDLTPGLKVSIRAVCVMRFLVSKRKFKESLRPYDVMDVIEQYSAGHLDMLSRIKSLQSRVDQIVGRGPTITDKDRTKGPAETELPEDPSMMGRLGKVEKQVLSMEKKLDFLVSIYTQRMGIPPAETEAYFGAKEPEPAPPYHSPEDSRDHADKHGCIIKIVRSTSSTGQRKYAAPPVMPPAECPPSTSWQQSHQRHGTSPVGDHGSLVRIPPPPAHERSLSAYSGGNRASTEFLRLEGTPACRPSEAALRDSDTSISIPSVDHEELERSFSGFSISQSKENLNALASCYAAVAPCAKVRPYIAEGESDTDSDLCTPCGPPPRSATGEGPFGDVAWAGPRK
KCNQ2 block baseline: further read-out of KCNQ2 block, marked with its call; B-score; measured here: initial fluorescence intensity artifact check;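 brightness before thallium and not channel activity; 0 = typical well and far values either way flag optical interference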
Starred values were filed as active, the others as inactive; i = inactive. Only part of the results is shown; the hit share may differ from the screen's.

KCNQ2 block,KCNQ2 block baseline,SMILES
i,0.25,O=C(COC(=O)C1CCCCC1C(=O)N1CCc2ccccc21)NCc1ccco1 (configuration not stated)
i,0.15,O=C(C(Sc1ccccc1)c1ccccc1)N1CCN(c2ccccc2)CC1 (configuration not stated)
i,2.1,CCOc1ccc(C(=O)C(C)OC(=O)c2nc(Cl)ccc2Cl)cc1 (configuration not stated)
i,-0.04,COC(=O)c1c(C)[nH]c(C)c1C(=O)c1ccccc1Cc1ccccc1
-6.7*,-0.23*,COc1cc(-c2nc(C(=O)NCC3CCCO3)cc3c2[nH]c2ccccc23)cc(OC)c1OC (configuration not stated)
i,2.9,CC(C)c1ccc(Nc2nc(Cl)nc(Cl)n2)cc1
i,3.9,C#CCN(C(=O)CC1C(=O)NCCN1C/C=C/c1ccccc1)C1CCCCC1 (configuration not stated)
i,-1.1,CC(C)OC(=O)c1cccc(C(=O)Oc2ccc(Br)cc2)n1
i,0.67,COc1ccc2ccccc2c1C(=O)/C=C\c1ccoc1
i,0.6,COCCCNC(=O)/C(C#N)=C/c1cccc(NC(=O)c2ccccc2Cl)c1
i,-0.09,CCOc1ccccc1/C=C/C(=O)c1ccc(Cl)cc1
i,-1.1,CCOC(=O)c1cc(-c2ccc(F)cc2)n(CC(=O)NCc2cccnc2)c1C
i,0.08,CCOC(=O)c1[nH]c(C)c(C(=O)N(C)C)c1C
i,0.68,O=C1C=C(NCC2CCCO2)C2(CCCCC2)O1 (configuration not stated)
i,0.01,CCOC(=O)C1(CCOC)CCN(C(=O)c2ccc(CSC)o2)CC1
i,-1.5,CCOc1ccc(-c2ccc(NS(=O)(=O)c3ccc([N+](=O)[O-])cc3)cc2)nn1
i,-3.2,CC1=C(C(=O)OCCc2ccccc2)C(c2ccsc2)NC(=O)N1C (configuration not stated)
i,-0.83,O=c1cc(Cl)c(-c2ccccc2)nn1Cc1ccc(Cl)cc1
i,-1.4,COc1ccc(C(=O)NOCc2ccccc2)cc1
i,-1.2,Cc1c(C(=O)NCC(c2ccco2)N(C)C)oc2c(Cl)cccc12 (configuration not stated)

Shown with two lines to a compound: entries from further up
Below each compound: KCNQ2 block | KCNQ2 block baseline
CCOc1ccc(C(=O)C(C)OC(=O)c2nc(Cl)ccc2Cl)cc1 (configuration not stated)
  i | 2.1
COC(=O)c1c(C)[nH]c(C)c1C(=O)c1ccccc1Cc1ccccc1
  i | -0.04
COc1cc(-c2nc(C(=O)NCC3CCCO3)cc3c2[nH]c2ccccc23)cc(OC)c1OC (configuration not stated)
  -6.7* | -0.23*
CC(C)c1ccc(Nc2nc(Cl)nc(Cl)n2)cc1
  i | 2.9
C#CCN(C(=O)CC1C(=O)NCCN1C/C=C/c1ccccc1)C1CCCCC1 (configuration not stated)
  i | 3.9
CC(C)OC(=O)c1cccc(C(=O)Oc2ccc(Br)cc2)n1
  i | -1.1
COc1ccc2ccccc2c1C(=O)/C=C\c1ccoc1
  i | 0.67
COCCCNC(=O)/C(C#N)=C/c1cccc(NC(=O)c2ccccc2Cl)c1
  i | 0.6
CCOc1ccccc1/C=C/C(=O)c1ccc(Cl)cc1
  i | -0.09
CCOC(=O)c1cc(-c2ccc(F)cc2)n(CC(=O)NCc2cccnc2)c1C
  i | -1.1
CCOC(=O)c1[nH]c(C)c(C(=O)N(C)C)c1C
  i | 0.08
O=C1C=C(NCC2CCCO2)C2(CCCCC2)O1 (configuration not stated)
  i | 0.68
CCOC(=O)C1(CCOC)CCN(C(=O)c2ccc(CSC)o2)CC1
  i | 0.01
CCOc1ccc(-c2ccc(NS(=O)(=O)c3ccc([N+](=O)[O-])cc3)cc2)nn1
  i | -1.5
CC1=C(C(=O)OCCc2ccccc2)C(c2ccsc2)NC(=O)N1C (configuration not stated)
  i | -3.2

Later entries.
KCNQ2 block,KCNQ2 block baseline,SMILES
-8.2*,-0.09*,COc1cccc(COc2ccc(N(C)S(=O)(=O)c3ccccc3)cc2)c1
i,1.1,O=C1C/C(=C\c2c(F)cccc2Cl)N2CCC1CC2
i,-0.73,COc1cc(OC)c(C2=NOC(C(=O)O)C2)cc1Cl (configuration not stated)
i,1.6,Cn1cnnc1SCC(=O)Nc1cc(S(=O)(=O)N2CCCCC2)ccc1Cl
i,-0.01,COc1ccc(-n2nc3c(c2NC(=O)c2ccc(Br)cc2)CS(=O)C3)cc1 (configuration not stated)
i,0.74,Cc1ccc(SCc2c(C#N)c3ccccc3n2C)cc1
i,0.18,CCCCC(=O)N1CCCC(c2nc3c(nnn3Cc3cc(C)ccc3C)c(=O)[nH]2)C1 (configuration not stated)
i,0.62,O=C(C[n+]1ccccn1)c1ccccc1
i,-0.02,Cc1cccc(CNC(=O)C2CCCN(c3nn4c(=O)cc(C)nc4s3)C2)c1 (configuration not stated)
i,0.45,CCN1CCN(CCNC(=O)CCCCCn2c(=O)[nH]c3cc(C(=O)OC)ccc3c2=O)CC1
i,-2.8,Cc1ccc(C)c(N(C(=O)c2csnn2)C(C(=O)NC2CCCCC2)c2ccncc2)c1 (configuration not stated)
i,0.28,O=C(c1cc(-c2ccc(Cl)cc2)on1)N1CCCCCC1
i,0.11,O=C(CNC(=O)c1ccccc1F)c1ccc(Br)cc1
i,-0.02,CCOC(=O)CC(=O)CSc1ccc2nnc(-c3ccc(C)cc3)n2n1
i,0.61,CCOC(=O)C1CCN(C(=O)c2ccc(N(C)S(=O)(=O)c3ccc(OC)cc3)cc2)CC1
i,-0.12,COC(=O)[C@@]1(Cc2ccc(F)cc2)[C@H]2c3cc(C(=O)N(C)C)n(Cc4ccc(OC(F)(F)F)cc4)c3C[C@H]2CN1C(=O)c1ccccc1
i,-3,Cc1cccc(Cn2c(N3CCN(c4ccccc4)CC3)nc3c2c(=O)n(C)c(=O)n3C)c1
i,-0.05,CC(C)C1Oc2ccccc2N(CC(=O)N(Cc2ccccn2)C2CC2)C1=O (configuration not stated)
i,2.2,CC(C)(C)c1ccc(Cn2ccc(-c3ccc4c(c3)OCO4)n2)cc1
i,0.35,COc1cccc(NC(=O)C2=COCCO2)c1
i,-0.2,CN(Cc1cccc(F)c1)C(=O)Cc1ccc(S(=O)(=O)N2CCOCC2)s1
i,-0.09,Nc1nonc1C(=O)NCCc1ccccc1
i,-0.14,COc1cc(NC(=S)NCc2cccnc2)c(OC)cc1Cl
i,-2.7,Cc1ccc(S(=O)(=O)CCN2CCC(n3cccc3)CC2)cc1
i,0.25,CCCOc1ccc(N2C(=O)CC(S/C(N)=N/N=C(\C)c3cccs3)C2=O)cc1 (configuration not stated)
i,1.2,O=[N+]([O-])c1ccc(-c2cnc(NO)nc2)cc1
i,0.83,COC(=O)Nc1ccc(SCC(=O)c2cccc([N+](=O)[O-])c2)cc1
i,1.4,COc1ccc(OC)c(CN2CCN(C(=O)CCC(=O)c3cccs3)CC2)c1
i,-0.65,Cc1[nH]n(-c2ccc([N+](=O)[O-])cc2)c(=O)c1C=NCCN1CCN(C(=O)c2ccc(F)cc2)CC1
i,-0.28,Clc1ccc(Cn2ncc3c(NCc4ccccc4)ncnc32)cc1
i,0.55,N#Cc1ccccc1NS(=O)(=O)c1cc2c3c(c1)CCN3C(=O)CC2
i,-0.01,O=C(C1CC(c2ccccc2O)=NO1)N1CCCCC1 (configuration not stated)
i,-1.3,CCOc1cc(/C=C2\SC(=Nc3ccc(F)cc3)N(c3ccc(F)cc3)C2=O)ccc1OCC(=O)O
i,-0.39,Cc1cc(C)n(C(=O)c2ccc(C)c(Br)c2)n1
i,1.2,CC(C)OP(=O)(c1ccc(N(C)C)cc1)C(Nc1ccccc1)c1ccccc1 (configuration not stated)
i,0.04,CCS(=O)(=O)n1nc(-c2ccc(OC)cc2)nc1N
i,0.03,OCCC1CN(Cc2ccc3nsnc3c2)CCN1C1CCCC1 (configuration not stated)
i,-0.7,CSCc1nc2sc(C(=O)Nc3nc(C)cs3)c(C)c2c(=O)[nH]1
i,0.13,O=C(/C=C/C=C/c1ccccc1)c1ccco1
i,-0.64,C=CCNC(=O)CSc1nc2sccc2c(=O)n1-c1ccccc1
i,-0.86,CCN(CC)C(=O)COc1coc(CN2CCN(Cc3ccccc3)CC2)cc1=O
i,2.6,COc1ccc(N2C(=O)C(OC(C)=O)C2c2ccc(C)cc2)cc1 (configuration not stated)
i,1.8,CC(=O)Nc1cccc(-c2nc3ccc(NC(C)=O)cc3[nH]2)c1
i,-0.99,COc1ccc(C2CC(=O)N3CN(c4ccccc4F)CSC3=C2C#N)cc1OC (configuration not stated)
i,-0.18,O=C(CCNC(=O)C1CCN(S(=O)(=O)c2ccc(F)cc2)CC1)NCCc1ccc(Cl)cc1
i,0.01,Cc1ccc(/C=C/C(=O)Nc2ccc(O)c3c(=O)cc(-c4ccccc4Cl)oc23)cc1
i,0.41,O=C(CSc1nccn1-c1ccc(F)cc1)NCc1ccc2c(c1)OCO2
i,-0.34,Cc1cc(Nc2cccc(Cl)c2)nc(N2CCOCC2)n1
i,2.2,O=C(c1cc(-c2cccs2)on1)N1CCc2ccccc2C1
i,-2.9,c1coc(-c2nnc(SCc3cn4ccccc4n3)o2)c1
i,-0.56,COc1ccccc1CCNC(=O)CSc1ccc(-c2ccco2)nn1
i,0.88,CCCc1nc2ccc(NC(C)=O)cc2c(=O)n1Cc1ccccc1Cl
i,-1.1,Cc1cc(C(=O)N/N=C/c2ccc(Cl)c([N+](=O)[O-])c2)c(C)n1-c1ccc(F)cc1
i,0.65,O=C(Nn1cnnc1)c1ccc(Cl)cc1[N+](=O)[O-]
i,0.68,O=[N+]([O-])c1ccc2c(c1)c(-c1ccccc1)nc1nncn12
i,0.04,O=C(O)c1cc(-c2ccc(Cl)cc2)n(-c2cccc(Cl)c2)n1
i,0.32,COc1ccc(C2N=C(c3ccccc3)C(C)(C)N2O)cc1 (configuration not stated)
i,0.16,Cc1cc2c(cc1S(=O)(=O)NCc1ccc(N(C)C)cc1)OCC(=O)N2
i,10,Cc1ccccc1-n1c(O)c(/C=C/C=Nc2ccccc2)c(=O)[nH]c1=O
i,-0.8,Cc1ccc2nc(NNC(=O)c3ccc(S(=O)(=O)N4CCc5ccccc5C4)cc3)sc2c1

More entries:
KCNQ2 block,KCNQ2 block baseline,SMILES
i,-0.39,O=C(c1ccc(S(=O)(=O)N2CCCC2)cc1)N(c1ccc(F)cc1)C1C=CS(=O)(=O)C1 (configuration not stated)
i,0.04,O=C(Oc1cccc(N2C(=O)CCC2=O)c1)c1ccccc1
i,0.36,CC1=NNC(=O)C1CCC(=O)N/N=C/c1ccc(Cl)cc1 (configuration not stated)
i,-0.46,CC(Oc1cc2oc(=O)c3c(c2cc1Cl)CCC3)C(=O)NCCCN1CCCC1=O (configuration not stated)
i,-0.25,c1nnn(C23CC4CC(CC(C4)C2)C3)n1
i,0.07,CCOC(=O)c1c(C)nn(Cc2ccccc2)c1N
i,1.2,Cc1cccc(NC(=S)NC2CC3CCCC(C2)N3Cc2cccs2)c1C (configuration not stated)
i,-0.34,CCOc1ccc(N2CCCn3c2nc2c3c(=O)n(CCc3ccccc3)c(=O)n2C)cc1
i,-0.79,CC(=O)NC(=S)Nc1ccc(S(=O)(=O)Nc2ncccn2)cc1
i,0.21,COc1cc(OC)cc(C(=O)Nn2cc(C(=O)Nc3ccc(F)cc3F)c3ccccc3c2=O)c1
i,0.48,Cc1noc(N)c1C1(O)C(=O)N(C(C)C)c2ccccc21 (configuration not stated)
i,0.51,O=C(COC(=O)c1ccccc1Br)NCCN1C(=O)CSC1=O
i,0.24,CC(C)(C)c1ccc(CSc2nnc(-c3ccccc3NC(=O)c3ccccc3)o2)cc1
i,2.4,COc1ccc(OC(=O)c2cccnc2)cc1
i,2.1,CCOC(=O)N1CCN(C(=O)Nc2ccc(NC(=O)N3CCN(C(=O)OCC)CC3)cc2)CC1
i,0.35,Cc1ccc(C(O)P(=O)(OCc2ccccc2)c2ccc(N(C)C)cc2)cc1 (configuration not stated)
i,-0.24,COc1cccc(NC(=O)CSc2nnc(-c3ccco3)c(-c3ccco3)n2)c1
-7.5*,-1.4*,COc1ccccc1CNC(=O)CN1C(=O)C(C)N(c2ccc(C)cc2)C1=O (configuration not stated)
i,-0.65,CCCC[C@@H]1CNC(=S)N1CCC12CC3CC(CC(C3)C1)C2
i,-0.38,Cc1ccc(Sc2cnccc2C#N)cc1
i,1.4,CCC(CO)NCc1cc(OC)c(OCC(=O)NCCc2ccccc2)cc1Br (configuration not stated)
i,-0.49,CCCC(=O)Nc1ccccc1-c1nnc(SCC)[nH]c1=O
i,2.7,COc1ccccc1CC(=O)NC1CCN(Cc2ccccc2)CC1
i,0.43,C/C(=N\NC(=O)c1nnn(-c2nonc2N)c1C(C)C)c1cc(C)sc1C
-6.2*,0.51*,O=C(COc1ccccc1)NC(NC(=S)Nc1ccccc1O)C(Cl)(Cl)Cl (configuration not stated)
i,0.58,CC(C)OCCCNC(=O)CN1CCN(Cc2ccc(Cl)cc2)C1=O
i,0.97,O=C(COc1ccc(Cl)c(Cl)c1)NN1C(=O)C2C(C1=O)C1C=CC2C12CC2 (configuration not stated)
i,-1.5,Cc1ccc(NC(=S)Nc2ncccc2C)c(C)c1
i,1.9,COCCNC(=O)c1ccc(C2SCC(=O)N2Cc2ccco2)cc1 (configuration not stated)
i,1.9,CC(C)Cn1c(=O)n(C)c(=O)c2[nH]cnc21
i,-0.38,CCCC(=O)N=C1SC2CS(=O)(=O)CC2N1c1ccc(CC)cc1 (configuration not stated)
i,-2.2,COc1ccc(-c2nsc3c(N4CCCC4)ncnc23)cc1
i,1.7,O=C(NC(=S)NNC(=O)c1cccs1)c1ccco1
i,0.74,Cc1nnc2n(C3CCCCC3)c(=O)c3c4c(sc3n12)COC(C)(C)C4
i,1.2,CCN(CC)C(=O)Oc1cc(COC)nc(-c2ccccc2)n1
i,0.33,Cc1ccc(NC(=O)C2CCCN(S(=O)(=O)c3cccs3)C2)cc1 (configuration not stated)
